# Mtb hypoxia rep: PubChem AID 1159583; M. tuberculosis hypoxia-regulated fluorescent reporter, fluorescence; fluorescence inhibition, % (test concentration not listed); actives 0.1% (n = 300,000);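 active = 35 to 45% if threefold the growth effect, above 45% if 1.5-fold the growth effect; inactive = the rest, general growth blockers included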;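 note: wells of about 50 µL received 100 nL stock; 0% = vehicle wells and 100% = reference inhibitor wells; whole bacteria with a GFP reporter of the hypoxia response; strong numbers were not always called active; many hits fall short of the cut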
# PrP UTR inh: inhibition of PrP 5' UTR reporter expression | cell-based PrP 5' UTR mRNA reporter, plate reader | inhibition, % (concentration not given with the values) | actives 0.35% (n = 340,000) | AID 488862, 2010;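 active = every replicate at 50% or more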;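 note: 0 = median of the neutral control wells; tested in H4 reporter cells; numbers are from one replicate; inactives centre near -14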
# Sa RN4220 lethal: growth inhibition of S. aureus RN4220, primary screen, OD600; 16 h; inhibition, % (concentration not given with the values); actives 0.33% (n = 330,000); AID 1259311, 2017;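 active = z-score of -3 or lower and OD600 up to 0.18 on both plates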;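 note: plate controls were untreated cells for no effect and reference antibiotic for full effect; stock transfer was 100 nL into about 80 µL; one replicate is shown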
# Sa ugtP lethal: growth inhibition of ugtP-null S. aureus, primary screen, RN4220 ugtP deletion, OD600; 16 h; some inactives read as strong as hits; growth inhibition, % (concentration not given with the values); actives 0.54% (n = 330,000); AID 1259309, 2017;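 active = z-score under -3 and OD600 up to 0.15 on both plates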;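 note: plate controls were untreated wells for no effect and antibiotic for full effect; wells of about 80 µL received 100 nL stock; the first replicate is given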
# BJeLR viability: MLPCN primary cell-based screen for lethality selective to Ras in HRASV12 cells; actives 0.17% (n = 300,000); AID 1554, 2009; BJeLR (HRASV12) viability, CellTiter-Glo ATP luminescence, 48 h; reference of the scale not given here; inhibition, % (test concentration not listed);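 active = replicate mean above 50%; inconclusive = above 50% but judged a plate artefact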;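 note: 50 nL library stock added to about 25 µL; numbers are from one replicate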
# Bead autofluor: compound fluorescence in toxin protease inhibitor counterscreen | fluorescence intensity (concentration not given with the values) | compound autofluorescence counterscreen, microsphere flow cytometry; hits give high values | actives 3.1% (n = 360,000);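 active = at least 3 SD above the mean of all compounds, about 16000 in these data; inconclusive = too few beads counted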;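 note: 100 nL of 1 mM stock went into each well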
# Mtb hypoxia rep growth: second read-out of Mtb hypoxia rep, no call of its own (marks repeat the call); growth inhibition, %; measured here: M. tuberculosis growth (absorbance);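 0% = vehicle and 100% = reference antibiotic; read after six days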
# Active calls of the source: *; ? = inconclusive; . = not tested or not shown; & = joins results of further samples.
mol	Mtb hypoxia rep	Mtb hypoxia rep growth	PrP UTR inh	Sa RN4220 lethal	Sa ugtP lethal	BJeLR viability	Bead autofluor
CC(C#N)Sc1ncnc2sc(-c3ccccc3)cc12 (stereo not drawn)	-10	0	-15	4.1	2	-5	3979
CCOC(=O)c1nc2ccccc2nc1C	-4	6	-15	-4.1	0	-1	2139
COc1ccc(C=NNC(=O)c2nc(-c3ccccc3)cc(-c3ccccc3)n2)cc1OC	10	11	.	4.0	-6	.	.
Cc1ccc(C(=O)NNC(=O)c2cccc(C)c2)cc1	-3	-4	-6	1.7	3	6	4628
Cc1cc(NC(=O)COC(=O)CCS(=O)(=O)c2ccc(C)c(C)c2)no1	-5	-12	-15	0.0	8	-2	5413
Cc1c(O)ccc2c(=O)c(-c3nncn3-c3ccccc3)coc12	-2	7	6	1.4	14	.	4034
Cc1cccc(Nc2nc3ccccc3n3nnnc23)c1	13	-2	-16	2.5	9	-9	2455
CC(C)c1ccc2nc(NC(=O)C3CC3)sc2c1	5	14	-128	-11	-3	-8	4684
O=C(C1CCN(S(=O)(=O)c2cccnc2)CC1)N1CCN(c2cccc(Cl)c2)CC1	8	0	-18	4.1	-6	7	5391
Cc1noc(C)c1COc1ccc(C(=O)OCC(N)=O)cc1	6	0	-20	2.1	6	1	2188
CCN(CC)S(=O)(=O)c1ccc(NN=Cc2ccc(O)cc2O)nc1	8	2	.	12	-3	.	.
Cc1ccccc1C(=O)NC(=S)Nc1ccc(N2CCN(C(=O)c3ccccc3)CC2)cc1	6	10	-16	3.1	52	4	5173
CCCCNc1c(-c2cccc(SC(C)CC)c2)nc2ccc(Cl)cn12 (stereo not drawn)	-1	4	-13	7.0	-5	.	2978&4708
O=C(CN(C1CC1)S(=O)(=O)c1ccc(S(=O)(=O)N2CCCCCC2)cc1)Nc1ccccc1	.	.	-9	2.1	0	0	5875
CCOC(=O)c1ccc(NC(=O)Oc2cc(C)c(Cl)cc2C(C)C)cc1	.	.	-40	.	.	-3	4207
COc1ccc(-c2noc(CCC(=O)O)n2)cc1	4	0	-48	6.3	7	1	9549
O=P(COCCOCCOCCOCP(=O)(c1ccccc1)c1ccccc1)(c1ccccc1)c1ccccc1	13	3	-6	4.9	8	5	4185
Cc1cccc2c1N(CCCOc1ccc(C(C)(C)C)cc1)C(=O)C2=O	2	13	-6	0.7	22	8	5932
C=CCNC(=O)COC(=O)c1oc2ccccc2c1CSC1CCCCC1	6	2	-20	7.1	41	-2	7653
COc1cccc(Cn2cc(-c3cccc(C(F)(F)F)c3)nn2)c1	6	10	-6	4.2	-11	8	3080
COc1ccc(C(=O)NC2CC2)cc1OC1CCN(Cc2ccc(NC(C)=O)cc2)CC1	0	7	0	2.7	3	-4	5965
Cc1sc(N)c(C(=O)c2ccccc2Cl)c1C	8	5	-13	2.9	0	4	4618
Cc1ccc(S(=O)(=O)C(CNC(=O)C(C)C)c2cccs2)cc1 (stereo not drawn)	5	-1	-9	3.5	3	13	4147
CC(=O)c1ccccc1NS(=O)(=O)c1cccc2nonc12	11	0	-19	5.4	12	0	4461
C=CCn1c(CNC(=O)c2cccs2)n[nH]c1=S	-2	-5	-15	6.6	6	2	7127
Cc1cccc(C)c1NC1=NC(=S)N(c2ccccc2)C12CCOC(C)(C)C2 (stereo not drawn)	9	6	-16	7.4	7	13	3333
CCOC(=O)CSc1nc2sc3c(c2c(=O)n1-c1ccc(C)cc1)CCN(C)C3	-1	10	-9	2.4	11	2	3938
Cc1ccccc1NC(=S)NC(C)C(c1ccccc1)N1CCN(C)CC1 (stereo not drawn)	0	0	-17	0.9	2	-2	4317
CCOc1ccc2c(c1)OC1(CCC(C)C1)CC2=O (stereo not drawn)	13	8	-6	8.5	-3	-3	3663
CN(Cc1ccco1)S(=O)(=O)c1ccc2c(c1)CCN2C(=O)CCC(=O)O	10	5	-30	4.8	16	8	10116
Cc1nc2ccc(NS(=O)(=O)c3c(C)c(C)cc(C)c3C)cc2s1	.	.	-14	26	-6	15	3668
CCOc1c2ccc(C(=O)NC3CCCc4ccccc43)cc2nn1C (stereo not drawn)	16	8	-16	17	6	13	3679
Cc1cc(C)c(NC(=O)C2CCCN2C(=O)NC2CCCCC2)c(C)c1 (stereo not drawn)	7	7	-16	0.8	1	9	4135
CC1(C)ON(C2CCCCC2)C2c3nc4ccccc4n3CC21 (stereo not drawn)	8	10	.	3.0	6	.	.
O=C(Cn1cc2c(n1)CCCCC2)N1CCc2ccccc2C1	.	.	-9	-1.0	10	0	6204
CCOC(=O)CN1CC23C=CC(O2)C(C(=O)N2CCN(c4ccc(F)cc4)CC2)C3C1=O (stereo not drawn)	-4	-6	-23	11	7	-1	6951
Cc1cc(NC(=O)CCC(=O)N(CC(=O)NCC2CCCO2)c2ccccc2)no1 (stereo not drawn)	2	-3	-11	3.6	13	-6	4061
COC(=O)c1ccc(NC(=O)N2CCC(O)(c3cccnc3)CC2)cc1	-7	2	-55	-4.4	-5	13	3284
C/C=C/c1cc(OC)c2c(c1)[C@H](C)[C@@H](c1ccc(O)c(OC)c1)O2	.	.	-13	9.6	4	5	4144
COC(=O)CCc1c(C)c(C(=O)c2ccc(F)cc2)c2ccccn12	8	3	-10	4.1	4	-7	?

# 14 entries from above, with two lines to a compound:
# Value order: Mtb hypoxia rep	Mtb hypoxia rep growth	PrP UTR inh	Sa RN4220 lethal	Sa ugtP lethal	BJeLR viability	Bead autofluor
COc1ccc(C(=O)NC2CC2)cc1OC1CCN(Cc2ccc(NC(C)=O)cc2)CC1
  0	7	0	2.7	3	-4	5965
Cc1sc(N)c(C(=O)c2ccccc2Cl)c1C
  8	5	-13	2.9	0	4	4618
Cc1ccc(S(=O)(=O)C(CNC(=O)C(C)C)c2cccs2)cc1 (stereo not drawn)
  5	-1	-9	3.5	3	13	4147
CC(=O)c1ccccc1NS(=O)(=O)c1cccc2nonc12
  11	0	-19	5.4	12	0	4461
C=CCn1c(CNC(=O)c2cccs2)n[nH]c1=S
  -2	-5	-15	6.6	6	2	7127
Cc1cccc(C)c1NC1=NC(=S)N(c2ccccc2)C12CCOC(C)(C)C2 (stereo not drawn)
  9	6	-16	7.4	7	13	3333
CCOC(=O)CSc1nc2sc3c(c2c(=O)n1-c1ccc(C)cc1)CCN(C)C3
  -1	10	-9	2.4	11	2	3938
Cc1ccccc1NC(=S)NC(C)C(c1ccccc1)N1CCN(C)CC1 (stereo not drawn)
  0	0	-17	0.9	2	-2	4317
CCOc1ccc2c(c1)OC1(CCC(C)C1)CC2=O (stereo not drawn)
  13	8	-6	8.5	-3	-3	3663
CN(Cc1ccco1)S(=O)(=O)c1ccc2c(c1)CCN2C(=O)CCC(=O)O
  10	5	-30	4.8	16	8	10116
Cc1nc2ccc(NS(=O)(=O)c3c(C)c(C)cc(C)c3C)cc2s1
  .	.	-14	26	-6	15	3668
CCOc1c2ccc(C(=O)NC3CCCc4ccccc43)cc2nn1C (stereo not drawn)
  16	8	-16	17	6	13	3679
Cc1cc(C)c(NC(=O)C2CCCN2C(=O)NC2CCCCC2)c(C)c1 (stereo not drawn)
  7	7	-16	0.8	1	9	4135
CC1(C)ON(C2CCCCC2)C2c3nc4ccccc4n3CC21 (stereo not drawn)
  8	10	.	3.0	6	.	.

# The list goes on.
mol	Mtb hypoxia rep	Mtb hypoxia rep growth	PrP UTR inh	Sa RN4220 lethal	Sa ugtP lethal	BJeLR viability	Bead autofluor
COc1cc(OC)c2c(c1)S(=O)(=O)C(c1ccccc1)=C2N	3	16	-4	0.9	1	6	3407
Cc1ccc(NCc2nnc(SCC(=O)c3ccccc3)n2Cc2ccco2)c(C)c1	14	1	-27	-0.8	-17	-8	6849
COc1ccc(S(=O)(=O)NC(N)=NCCc2ccc(OC)c(OC)c2)cc1C	-9	-1	-14	5.2	6	5	2717
CCOC(=O)C1CCN(CC(C)(C)NS(=O)(=O)c2ccc(Cl)cc2)CC1	-5	8	1	-1.4	3	-6	3747
COc1ccc(CCNC(=O)C(=O)NN=Cc2cccs2)cc1OC	19	1	.	7.2	4	.	.
O=c1c2ccccc2nc2n1CCO2	6	0	.	4.5	15	6	2824
COC(=O)COc1nc(C)c(Br)c(OC)n1	.	.	-21	8.2	3	1	2848
Cc1ccccc1C(=O)NNC(=O)c1cccc([N+](=O)[O-])c1	12	0	0	4.2	-2	-10	3253
CCOc1ccc(-n2cnc3sc(C)c(C)c3c2=O)cc1	11	16	-9	3.7	-1	2	3691
O=C(C1CCN(C2CCN(Cc3ccc4c(c3)CCO4)CC2)CC1)N1CCOCC1	7	-1	-37	6.4	5	-7	5779
COc1ccc(/C=N/NC(=O)C(=O)N2CCCCCC2)cc1O	.	.	-3	.	.	-5	6316
O=S(=O)(N=S1CC=CCN1S(=O)(=O)c1ccccc1)c1ccccc1 (stereo not drawn)	0	0	.	-0.5	0	.	.
O=C(OC(C(=O)NCC1CCCO1)c1ccccc1F)c1ccco1 (stereo not drawn)	5	1	-19	2.3	-9	-5	8523
COc1ccc(CCN2CC(C(=O)NCCN3CCCC3=O)CCC2=O)cc1 (stereo not drawn)	-12	0	-6	-0.9	-4	9	5646
O=C(O)CCN(CCC(=O)O)S(=O)(=O)c1ccccc1	8	0	-14	-0.4	4	-3	8305
CN(C(=O)C1CCC(=O)N(Cc2cccc(F)c2)C1)C1CCCCC1 (stereo not drawn)	6	-1	-44	1.8	-1	-8	5458
CCN(CC)C(=O)C1CCCN(c2ccc([N+](=O)[O-])cc2C=NNC(=O)c2cccc([N+](=O)[O-])c2)C1 (stereo not drawn)	-1	-3	.	-4.8	2	.	.
Cc1ccc(C(=O)C2CCN(S(=O)(=O)c3ccccc3C(=O)O)CC2)cc1	.	.	-32	.	.	-7	3919
CCCCN(C(=O)CSc1nn(-c2ccc(F)cc2)c(=S)s1)c1c(N)n(CCCC)c(=O)[nH]c1=O	-3	4	-14	-0.9	3	0	4237
COc1ccc(CNC(=O)c2csc(Cc3ccccc3)n2)cc1	.	.	-26	-10	28	3	2815
O=C(NCC(=O)N(CC1CCCO1)C(C(=O)NC1CCCCC1)c1cccnc1)c1cccs1 (stereo not drawn)	13	17	39	3.1	10	-2	4518
Cc1ccc(NN=C(C#N)C(=N)N2CCCCC2)cc1	9	-14	.	3.5	6	.	.
Cc1ccc(OCC(=O)N2CCN(Cc3ccc([N+](=O)[O-])cc3)CC2)cc1	12	5	-18	-0.3	8	9	3636
COc1ccc(CCNC(=O)C(=O)NN=C2CCCCCCC2)cc1OC	0	1	-27	4.7	5	0	3300
CCOc1ccc(NC(=O)CCNC(=O)C2CCN(S(=O)(=O)c3ccccc3)CC2)cc1	6	-13	-9	2.0	2	-2	4280
COc1ccc2[nH]cc(CCCN3C(=O)c4ccccc4C3=O)c2c1	1	7	-27	6.8	2	-6	2514
O=C(N/N=C/c1cc2c(cc1Cl)OCO2)c1ccc2c(c1)OCCO2	.	.	-13	.	.	-6	6296
COCc1cc(Sc2c(Cl)cccc2Cl)nc(-c2ccccc2)n1	.	.	-16	-9.6	85*	0	5974
COc1cc(/C=C2/C(=O)ON=C2C)ccc1OCc1ccccc1F	-2	-9	-140	6.3	14	7	7165

# Fetched by compound from above:
mol	Mtb hypoxia rep	Mtb hypoxia rep growth	PrP UTR inh	Sa RN4220 lethal	Sa ugtP lethal	BJeLR viability	Bead autofluor
CCOC(=O)c1nc2ccccc2nc1C	-4	6	-15	-4.1	0	-1	2139
COC(=O)c1ccc(NC(=O)N2CCC(O)(c3cccnc3)CC2)cc1	-7	2	-55	-4.4	-5	13	3284
